Compound activity: PubChem, ICCB-Longwood Screening Facility, Harvard Medical School
VACV E9 pol inh: inhibitors of vaccinia virus processive DNA synthesis (E9 polymerase); in vitro processive DNA synthesis, absorbance read-out; active compounds read low; some inactives read as strong as hits; normalized absorbance, % (test concentration not listed); hit rate 0.94% among 46,000; AID 493162;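 active means replicate mean up to 90% and picked by the depositor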;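 further: 100% = median of the test wells of a plate; 100 nL library stock went into each well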
* = called active by the depositor; & = joins results of further samples. Some of the compounds tested; count on the stated rates, not on these rows.

For COc1ccccc1N1CCN(c2nc(Nc3ccc(C)cc3)c3cnn(C)c3n2)CC1 the results were VACV E9 pol inh 102.
Cc1ccc(NC(=O)CCN2C(=O)c3ccccc3S2(=O)=O)cc1C was read as VACV E9 pol inh 96.
For CN1CCN(CC(=O)N2CCc3ccccc32)CC1 the results were VACV E9 pol inh 115.
For O=C(CN1C(=O)c2ccccc2S1(=O)=O)c1ccc(O)c(O)c1 the results were VACV E9 pol inh 94.
Cc1[nH]c2ccccc2c1CCNC1=CC(=O)CC(C)(C)C1 was read as VACV E9 pol inh 100.
`O=C1CCCN1c1ccc(C(F)(F)F)cc1` gave VACV E9 pol inh 100.
Screening Fc1cccc(CSc2c[nH]c3ccccc23)c1 returned VACV E9 pol inh 99.
`NC(=NC(=O)c1ccccc1)N1N=CCC1c1ccccc1` (centres undefined) gave VACV E9 pol inh 100.
Screening CCc1c(C(=O)O)c2ccccc2[nH]c1=O returned VACV E9 pol inh 98.
Screening CCc1ccc(NC(=O)N(Cc2cccc(OC)c2)C2CCN(CC)CC2)cc1 returned VACV E9 pol inh 101.
CCc1ccc(NC(=O)CNS(=O)(=O)c2ccc3nc(C)sc3c2)cc1 was read as VACV E9 pol inh 100.
Screening C=CCN(CC=C)c1nn[nH]n1 returned VACV E9 pol inh 60*.
CCOc1ccc(NC(=O)COC(=O)C(C)C)cc1 was read as VACV E9 pol inh 107.
For CC(C)(CC(=O)O)CC(=O)Nc1ccc(Oc2ccc(C(C)(C)C)cc2)nc1 the results were VACV E9 pol inh 83.
For c1ccc2oc(-c3ccnc4ccccc34)nc2c1 the results were VACV E9 pol inh 99.
N#Cc1ccccc1OCC(=O)N1CCC(Cc2ccccc2)CC1 was read as VACV E9 pol inh 102.
CCCCn1c(CCNC(=O)Cc2ccccc2)nc2ccccc21 was read as VACV E9 pol inh 97.
For Cc1ccc(SCCC(=O)N2CCC(C(N)=O)CC2)cc1 the results were VACV E9 pol inh 104.
For CN1C2CCC1CC(NC(=O)CSc1ccc(F)cc1)C2 (centres undefined) the results were VACV E9 pol inh 104.
Screening COC(=O)c1[nH]nc2c1C(=O)N(Cc1ccccc1)C2=O returned VACV E9 pol inh 106.
S=c1oc(Cc2ccccc2)nn1CN1CCOCC1 was read as VACV E9 pol inh 83.
Screening CC(C)N(CCc1ccncc1)C(=S)NCc1ccccc1 returned VACV E9 pol inh 94.
Screening CCOC(=O)c1c(NC(=O)/C=C/c2ccc(OC)cc2)sc2c1CCC2 returned VACV E9 pol inh 98.
Screening O=C1c2cccc3cccc(c23)C(=O)N1c1ccccc1 returned VACV E9 pol inh 99.
For COC(=O)COc1c(C)cc(Br)cc1Br the results were VACV E9 pol inh 98.
O=C(Nc1cccc(Cl)c1)c1ccc(S(=O)(=O)N2CCCC2)cc1 was read as VACV E9 pol inh 99.
For Cc1ccc(CNC(=O)c2ccccc2NC(=O)C(F)(F)F)cc1 the results were VACV E9 pol inh 95.
Screening CC(N=C1CC(C)(C)CC(=O)/C1=C(O)/C=C/c1ccccc1)C(=O)O (centres undefined) returned VACV E9 pol inh 102.
`CCc1cc2c(-c3ccccc3)cc(=O)oc2cc1O` gave VACV E9 pol inh 100.
`O=c1c(-c2ccon2)c(O)c2ccccc2n1-c1ccccc1` gave VACV E9 pol inh 99.

The last 2 compounds of the part before lead into the next:
`CCc1cc2c(-c3ccccc3)cc(=O)oc2cc1O` gave VACV E9 pol inh 100.
`O=c1c(-c2ccon2)c(O)c2ccccc2n1-c1ccccc1` gave VACV E9 pol inh 99.
`Cc1cc(C(C)(C)C)ccc1OCC(N)=O` gave VACV E9 pol inh 96.
COC(=O)CC1=C(C(=O)OC)C2(C(=O)Nc3ccccc32)C(C(=O)OC)=C(N)O1 (centres undefined) was read as VACV E9 pol inh 100.
For COc1ccccc1NC(=O)c1ccncc1 the results were VACV E9 pol inh 102.
Screening COc1ccc(-c2csc3ncnc(-n4nc(C)cc4N)c23)cc1 returned VACV E9 pol inh 97.
For CCc1ccc(NC(=S)NC(=O)c2cccs2)cc1 the results were VACV E9 pol inh 100.
For CC(=O)Oc1ccc2c(=O)c(-c3ccccc3C)c(C)oc2c1C the results were VACV E9 pol inh 100.
Screening Cc1ccc(S(=O)(=O)NC(=O)NCC2CCN(C(=O)OC(C)(C)C)CC2)cc1 returned VACV E9 pol inh 100.
For O=C(NC(=O)N(Cc1ccccc1)C1CC2CCC1C2)c1c(Cl)cccc1Cl (centres undefined) the results were VACV E9 pol inh 109.
`Cc1ccc(NC(=O)c2cc(-c3cccs3)nc3ccccc23)nc1` gave VACV E9 pol inh 98.
`Cc1cccc(C)c1NC(=O)CBr` gave VACV E9 pol inh 101.
`CCOC(=O)c1cc2c(c(CSc3nc4ccccc4c(=O)n3Cc3cccs3)c1)OCOC2` gave VACV E9 pol inh 94.
Screening O=C1ON=C(c2ccccc2)/C1=C\c1ccc2c(c1)OCO2 returned VACV E9 pol inh 100.
CCOC(=O)Cc1c(-c2ccccc2)c2cc(C)ccc2[nH]c1=O was read as VACV E9 pol inh 98.
`Cc1cc(=O)oc2cc(OCC(=O)N(C)C)ccc12` gave VACV E9 pol inh 100.
For Cc1cc2c(cc1C)C(Nc1ccccc1)=NC(C)(C)C2 the results were VACV E9 pol inh 100.
For O=C(COC(=O)c1cccc2ccccc12)c1ccc(F)cc1 the results were VACV E9 pol inh 86.
Screening CCCc1ccc2c(N)c(C(=O)c3ccc(Br)cc3)sc2n1 returned VACV E9 pol inh 100.
`O=C(NC1C/C(=N\O)c2sccc21)C(F)(F)F` (centres undefined) gave VACV E9 pol inh 101.
O=C(CN(CCO)C(=O)c1ccc(Cl)cc1)Nc1ccc(F)cc1 was read as VACV E9 pol inh 101.
Screening Cc1cc(Nc2ccc(Cl)cc2)c2ccccc2n1 returned VACV E9 pol inh 101.
For COc1ccccc1-n1c(CSc2ccccn2)nc2ccccc2c1=O the results were VACV E9 pol inh 95.
Screening CCS(=O)(=O)c1ccc(O)c(NC(=O)Nc2ccccc2OC)c1 returned VACV E9 pol inh 98.
Screening COc1ccc(-c2nc(CN3CCC(C(=O)NC(C)C)CC3)c(C)o2)cc1OC returned VACV E9 pol inh 101.
`CCOC(=O)c1c(C)nc2c(C)cccn12` gave VACV E9 pol inh 93.
`O=C1O/C(=C\N2CCN(c3ccccc3)CC2)c2ccccc21` gave VACV E9 pol inh 80.
For Cc1nc(=O)cc(-c2ccccc2)n1-c1ccccc1 the results were VACV E9 pol inh 93.
O=C(O)c1sc2ccccc2c1Nc1ccccc1 was read as VACV E9 pol inh 101.
Screening Cn1c(=N)n(CCCOc2ccc(F)cc2)c2ccccc21 returned VACV E9 pol inh 91.
CCOC(=O)N1CCC(NC(=O)Cn2nc(CC)n3c(cc4sc(CC)cc43)c2=O)CC1 was read as VACV E9 pol inh 101.
Screening CC1=C(C(=O)N(C)C)C(c2ccc(Br)cc2)n2c(nc3ccccc32)N1 (centres undefined) returned VACV E9 pol inh 97.
Screening O=C(NCC12CC3CC(CC(C3)C1)C2)N1CCN(CCO)CC1 returned VACV E9 pol inh 100.
`CC(C)C(=O)Nc1c2c(nn1C(C)(C)C)CS(=O)C2` (centres undefined) gave VACV E9 pol inh 100.
`CCN(CC)C(=O)C1c2ccccc2Oc2ccccc21` gave VACV E9 pol inh 101.
For N#Cc1ccccc1NC(=O)CN1C(=O)c2ccccc2C1=O the results were VACV E9 pol inh 100.
For Cc1ccc(S(=O)(=O)NC(=NC2CCCCC2)c2ccccc2)cc1 the results were VACV E9 pol inh 100.
For O=C(CC(NC1CCCC1)C(=O)O)Nc1cccc(Cl)c1 (centres undefined) the results were VACV E9 pol inh 101.
For c1ccn2c(SCc3ccc4c(c3)OCO4)nnc2c1 the results were VACV E9 pol inh 99.
`CC[C@@]12CCCN3CC[C@]4(c5cccc(OC)c5N(C(C)=O)[C@@H]4CC1)[C@H]32` gave VACV E9 pol inh 101.
Cc1ccsc1C(=O)OCC(=O)NC1CC1 was read as VACV E9 pol inh 104.
`N#Cc1ccc(OCc2nnc3n2CCCCC3)cc1` gave VACV E9 pol inh 104.
Screening O=c1[nH]c2ccccc2c2ccccc12 returned VACV E9 pol inh 100.
For Cc1ccc(-n2c(SCc3ccccc3)nnc2-c2cccnc2)cc1Cl the results were VACV E9 pol inh 103.
Screening O=S(=O)(NC1CCCCC1)c1cccc(-c2nnc(-c3ccccc3)o2)c1 returned VACV E9 pol inh 98.
Cc1nnsc1C(=O)NCc1c(Cl)cccc1Sc1ccc(Cl)cc1 was read as VACV E9 pol inh 92.
For NS(=O)(=O)c1ccc(NC(=S)N2CCc3ccccc3C2)cc1 the results were VACV E9 pol inh 101.
`COC(=O)c1c(C)nc(C)c(C(=O)OC)c1-c1csc(S(=O)(=O)N2CCSCC2)c1` gave VACV E9 pol inh 100.
CCC(=O)Nc1sc2c(c1C(=O)N1CCCCC1)CCCCC2 was read as VACV E9 pol inh 102.
`Cc1cc(C)c(-n2c(SCC(=O)Nc3ccccc3Cl)n[nH]c2=O)c(C)c1` gave VACV E9 pol inh 102.
Screening CCN(C(=O)c1ccc2c(=O)n3c(nc2c1)CCCCC3)c1cc(Cl)ccc1OC returned VACV E9 pol inh 103.
`O=C(O)c1oc2ccc(Br)cc2c1-n1cccc1` gave VACV E9 pol inh 67*.
For O=C(c1cc(-c2ccc3c(c2)OCO3)on1)N1CCOCC1 the results were VACV E9 pol inh 103.
`Cn1c(CSc2nc3ccccc3s2)nnc1SCC(=O)NCCO` gave VACV E9 pol inh 100.
Screening C=C(C)C[N+](C)(C)Cc1c(C)ccc2ccccc12 returned VACV E9 pol inh 92.
Screening CCOc1ccc(N=c2scc(-c3ccc(Cl)s3)n2C)cc1 returned VACV E9 pol inh 100.
For COc1ccc(NC(=O)CCCOc2ccccc2)cc1 the results were VACV E9 pol inh 100.
Screening CCOCN1C(=O)c2cccc3cccc1c23 returned VACV E9 pol inh 96.
Screening CC(=O)Oc1ccc(N(C(C)=O)S(=O)(=O)c2ccccc2)cc1 returned VACV E9 pol inh 102.
Cc1ccc(C(=O)CSc2n[nH]c(C(F)(F)F)n2)cc1 was read as VACV E9 pol inh 101.
O=C(c1ncc[nH]1)c1ccco1 was read as VACV E9 pol inh 100.
For O=S(=O)(c1cccc2cccnc12)N1CCN(Cc2ccccc2)CC1 the results were VACV E9 pol inh 101.
`Cc1cccc(-c2nsc(SCC(=O)N3CCCCC3)n2)c1` gave VACV E9 pol inh 101.
Cc1cc(N2CCCCC2)nc2ccc(NC(=O)CCC3CCCC3)cc12 was read as VACV E9 pol inh 95.
For COc1ccc(CCNC(=O)CCN2C(=S)NC(C)(C)CC2C)cc1OC (centres undefined) the results were VACV E9 pol inh 108.
For COC(=O)C1=C(C)NC(=O)/C1=C\c1ccc2c(c1)OCO2 the results were VACV E9 pol inh 102.
`CCOc1cccc(=[O+]CC)c2c(C)oc(C)c12` gave VACV E9 pol inh 100.
O=C(O)CCc1ccc(-c2ccccc2)n1NC(=O)c1ccccc1Br was read as VACV E9 pol inh 101.
For CC1=C(C(=O)OCC(F)(F)F)C(c2ccc3c(c2)OCO3)NC(=O)N1 (centres undefined) the results were VACV E9 pol inh 99.
For Cc1cccc(-c2nc3s/c(=C\C4=Cc5ccccc5OC4)c(=O)n3n2)c1 the results were VACV E9 pol inh 100.
CN1C(=O)/C(=C/C=C2\SCCN2C)SC1=S was read as VACV E9 pol inh 96.
`COC(=O)C1=C(C)NC(C)=C(C(=O)OCCN(C)Cc2ccccc2)C1c1cccc([N+](=O)[O-])c1` (centres undefined) gave VACV E9 pol inh 99&99.
COC(=O)c1cc2oc3ccccc3c2n1CC(=O)NCCC1=CCCCC1 was read as VACV E9 pol inh 101.
Screening COc1cc(OC)cc(C(=O)Nc2nnc(-c3ccccc3Cl)s2)c1 returned VACV E9 pol inh 88.
For CCCc1cc2c(=O)c(-c3nc(C)cs3)coc2cc1OC(C)=O the results were VACV E9 pol inh 102.
For Cc1ccc(NC(=O)n2ccnc2)cc1NC(=O)n1ccnc1 the results were VACV E9 pol inh 100.
O=C(NCc1ccc2c(c1)OCO2)c1cccs1 was read as VACV E9 pol inh 97.
CCc1cc2c(=O)c(Oc3ccccc3F)c(C)oc2cc1OCC(=O)O was read as VACV E9 pol inh 102.
`Clc1ccccc1C1N(Cc2ccccc2)CCN1Cc1ccccc1` gave VACV E9 pol inh 101.
CN(C)C(=O)Cn1c(=O)oc2ccccc21 was read as VACV E9 pol inh 102.
Screening CCCCCCCCCCCCC/C=C/[C@@H](O)[C@H](CO)NC(=O)CCCCCCCCCCCCCCC returned VACV E9 pol inh 101.
`O=C1CCCCC1CN1CCCCC1` (centres undefined) gave VACV E9 pol inh 99.
For Cc1ccc2c(c1)-c1c(ssc1=S)C(C)(C)N2C(=O)c1ccncc1 the results were VACV E9 pol inh 100.
Screening Cc1c(C#N)c2nc3ccccc3n2c(=O)/c1=C/NN1C(=O)CNC1=S returned VACV E9 pol inh 94.

Filtered by structure: the compounds so far with an aryl methoxy group.
For COc1ccccc1N1CCN(c2nc(Nc3ccc(C)cc3)c3cnn(C)c3n2)CC1 the results were VACV E9 pol inh 102.
Screening CCc1ccc(NC(=O)N(Cc2cccc(OC)c2)C2CCN(CC)CC2)cc1 returned VACV E9 pol inh 101.
Screening CCOC(=O)c1c(NC(=O)/C=C/c2ccc(OC)cc2)sc2c1CCC2 returned VACV E9 pol inh 98.
For COc1ccccc1NC(=O)c1ccncc1 the results were VACV E9 pol inh 102.
Screening COc1ccc(-c2csc3ncnc(-n4nc(C)cc4N)c23)cc1 returned VACV E9 pol inh 97.
For COc1ccccc1-n1c(CSc2ccccn2)nc2ccccc2c1=O the results were VACV E9 pol inh 95.
Screening CCS(=O)(=O)c1ccc(O)c(NC(=O)Nc2ccccc2OC)c1 returned VACV E9 pol inh 98.
Screening COc1ccc(-c2nc(CN3CCC(C(=O)NC(C)C)CC3)c(C)o2)cc1OC returned VACV E9 pol inh 101.
`CC[C@@]12CCCN3CC[C@]4(c5cccc(OC)c5N(C(C)=O)[C@@H]4CC1)[C@H]32` gave VACV E9 pol inh 101.
Screening CCN(C(=O)c1ccc2c(=O)n3c(nc2c1)CCCCC3)c1cc(Cl)ccc1OC returned VACV E9 pol inh 103.
For COc1ccc(NC(=O)CCCOc2ccccc2)cc1 the results were VACV E9 pol inh 100.
For COc1ccc(CCNC(=O)CCN2C(=S)NC(C)(C)CC2C)cc1OC (centres undefined) the results were VACV E9 pol inh 108.
Screening COc1cc(OC)cc(C(=O)Nc2nnc(-c3ccccc3Cl)s2)c1 returned VACV E9 pol inh 88.
